# Screens (PubChem BioAssay)
# Rango-impB inh: Rango-importin beta binding inhibition; Q14974; Rango CFP/YFP FRET sensor + importin beta, 45 min; Potency, µM (top dose mostly 92.2 µM), for the others: at the top dose inhibition of complex formation; 0.031% of 340,000 active; AID 540263; active = rising FRET ratio curve, often small or poorly fitted; inconclusive = mostly compound fluorescence or quenching in the first reads; inactive = flat curves in all reads;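 note: potency is the fitted concentration of half-maximal effect; 0% = DMSO wells and 100% = buffer wells lacking importin beta; nearly all actives have a fitted effect of over 15% in size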
# Target sequence (Q14974 whole entry, looked up): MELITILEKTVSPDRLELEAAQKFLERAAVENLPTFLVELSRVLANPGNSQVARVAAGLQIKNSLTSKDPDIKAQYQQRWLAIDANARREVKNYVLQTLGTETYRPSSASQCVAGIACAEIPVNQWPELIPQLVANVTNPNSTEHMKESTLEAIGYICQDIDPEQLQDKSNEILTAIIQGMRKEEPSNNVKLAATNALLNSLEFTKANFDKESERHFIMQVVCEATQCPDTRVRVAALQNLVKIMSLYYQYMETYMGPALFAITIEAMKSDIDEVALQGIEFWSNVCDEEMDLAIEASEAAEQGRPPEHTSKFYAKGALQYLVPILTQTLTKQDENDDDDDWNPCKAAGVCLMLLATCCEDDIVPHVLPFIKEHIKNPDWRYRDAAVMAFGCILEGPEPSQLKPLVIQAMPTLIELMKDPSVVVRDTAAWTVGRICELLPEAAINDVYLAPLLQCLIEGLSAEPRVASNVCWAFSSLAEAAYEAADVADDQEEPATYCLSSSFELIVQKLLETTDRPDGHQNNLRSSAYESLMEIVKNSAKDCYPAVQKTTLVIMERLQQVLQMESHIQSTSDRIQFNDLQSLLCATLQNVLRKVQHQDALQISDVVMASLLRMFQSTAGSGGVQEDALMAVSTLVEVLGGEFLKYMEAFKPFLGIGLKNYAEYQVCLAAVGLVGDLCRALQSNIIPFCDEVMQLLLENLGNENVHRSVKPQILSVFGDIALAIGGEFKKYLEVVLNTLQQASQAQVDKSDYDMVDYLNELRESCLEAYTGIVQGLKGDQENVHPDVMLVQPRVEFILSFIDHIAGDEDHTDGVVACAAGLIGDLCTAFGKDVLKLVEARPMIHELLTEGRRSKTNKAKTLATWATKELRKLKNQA
#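 FRET biosensor Rango (snurportin 1 IBB between N-terminal EYFP and C-terminal Cerulean), 50 nM in PBS/1 mM DTT/0.02% Tween-20/0.1% BSA, preincubated 5 min RT with compound; 0.125 microM importin beta added, 45 min RT, CFP/YFP FRET ratio read.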
# Rango release inh: prevents RanGTP from dissociating the Rango-importin beta complex | O95149+P62826 | Biochemical FRET Rango-importin beta, RanGTP-induced dissociation | Potency, µM (doses to about 46.1 µM), for inactives: at the highest dose activity change, negative = inhibition | 0.071% of 340,000 active | AID 540253; active means falling FRET ratio curve, often poorly fitted, with flat reads before Ran was added; inconclusive means other falling curves, or compound fluorescence or quenching; inactive means flat or rising ratio curve;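 note: potency is the fitted concentration of half-maximal effect; % of control where 0% means no effect; nearly all actives have a fitted effect of over 45% in size; -100% = wells without RanGTP and RCC1; the record marks most hits as doubtful in a second field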
#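 Recombinant Rango FRET biosensor (EYFP–snurportin 1 IBB–cerulean CFP10) at 0.1 uM premixed with 0.25 uM importin beta in PBS, 1 mM DTT, 0.02% Tween-20, 0.1% BSA. Compound added 5 min; RanGTP-RCC1 (0.6 uM Ran, 2 mM GTP, 0.2 uM RCC1) then triggers release, read at 45 min.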
# miR-21 FLuc: miR-21 reporter, rising signal | HeLa miR-21 FLuc reporter, luciferase, 48 h | Potency, µM (doses to about 38.3 µM), for the others: at the top dose reporter change, positive = more light | 340,000 tested, under 10 active; active = well fitted rising curve with a large enough effect; inconclusive = small, poorly fitted or top-dose-only effect; inactive = no such curve, though single readings can be large or run the other way;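 note: % of control where 0% means no effect; miR-21 action dims this reporter so a rising signal means less miR-21 action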
#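 HeLa cells endogenously expressing miR-21, stably carrying CMV-driven firefly luciferase with a downstream miR-21 binding site, 2000 cells/well. Titrations up to approximately 40 uM, 48 hours; luciferase luminescence read.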
# GLA inh pH 4.5: inhibitors of human alpha-galactosidase A at pH 4.5; P06280; purified enzyme, 4-MU-alpha-Gal fluorescence, pH 4.5; activity change, negative = inhibition, % at 105 µM; 230,000 tested, under 10 active; AID 1467; inconclusive = small, poorly fitted or top-dose-only inhibition, or a rising curve; inactive = flat fitted curve, though single readings scatter; no compound was filed as active;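 note: 0% = full activity with enzyme and -100% = basal without enzyme; dose as in the result columns while the protocol names 77 µM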
# Starred values were filed as active, the others as inactive; ? = inconclusive; · = no result given; [ ] = dose if it differs, or a comment.
SMILES,Rango-impB inh,Rango release inh,miR-21 FLuc,GLA inh pH 4.5
COc1ccccc1N(C)S(=O)(=O)c1ccc(Cl)c(C(=O)N2CCC(C(N)=O)CC2)c1,3.8%,15%,-2%,?
COc1ccccc1/C=C/C(=O)NCC(=O)N/N=C/c1ccc(C(=O)O)cc1,0.7%,7%,-5%,·
CC1CCCN(CC(=O)Nc2ccc(S(=O)(=O)NC3CCCCC3)cc2)C1 (stereo not drawn),-3.9%,13%,9%,-7
Cn1c(SCc2nc(-c3ccc(Cl)cc3)no2)nnc1-c1ccccc1,-0.7%,0%,1%,7
Cc1ccccc1OCCCCN1CCCCC1,-1.0%,2%,-13%,·
COc1ccc(C2=NCC(CSc3nccc(=O)[nH]3)S2)cc1 (stereo not drawn),3.7%,22%,-15%,0
O=C(O)c1cccc(Cn2c(Cl)c(/C=N/Nc3ccccc3)sc2=O)c1,?,-29%,-8%,-13
O=C(Nc1ccc(Cl)cc1)C1CCCN1C(=O)NCc1ccccc1 (stereo not drawn),3.0%,2%,-3%,·
COc1ccc(C(=O)OCC(=O)Nc2ccc(F)c(F)c2F)cc1OC,5.1%,-8%,0%,4
CC(C)CC(NC(=O)OC(C)(C)C)c1cn([C@@H](CCCCNC(=O)OC(C)(C)C)C(=O)N2CCN(C(=O)OC(C)(C)C)CC2)nn1 (stereo partly drawn),-1.7%,15%,0%,-12
COc1ccc(S(=O)(=O)N2CCOCC2)cc1C(=O)N(C)CCOc1ccc(Cl)cc1,-4.3%,16%,·,·
COCCN1CC(CNC(=O)c2cc(COc3ccccc3SC)on2)CC1=O (stereo not drawn),?,-8%,-9%,·
CCc1cc(C(=O)OC)c(N2C(=O)C3C4C=CC(C4)C3C2=O)s1 (stereo not drawn),1.7%,-11%,-7%,3
COC(=O)c1ccc(-n2c(C)ccc2-c2ccccc2)cc1,-1.7%,6%,-1%,-13
O=C(O)CCC(=O)N1N=C(c2ccc(Br)cc2)CC1c1cccc(Br)c1 (stereo not drawn),0.8%,2%,-14%,·
Cc1cccn2c(=O)c(C=NCc3ccccc3)c(NCCO)nc12,-1.2%,0%,-5%,7
Cc1cc(=O)oc2c(C)cc(C(C)(C)C)cc12,-6.1%,-17%,·,·
O=C(CCNS(=O)(=O)c1ccccc1)NNC(=O)c1csc(N2CCOCC2)n1,-0.4%,-6%,·,·
N=c1c2c(ncn1Cc1ccco1)Oc1cc(O)ccc1C2c1ccccc1 (stereo not drawn),?,?,3%,4
CC1(NC(=O)CCc2ccccc2)CCN(CCCc2ccccc2)C1=O (stereo not drawn),-0.2%,28%,·,·
O=C(O)C1CCN(c2c([N+](=O)[O-])cc(C(F)(F)F)cc2[N+](=O)[O-])CC1,-0.4%,19%,-4%,0
O=C(COc1ccccc1)Nc1nnc(-c2ccc(F)cc2)o1,1.0%,5%,0%,·
CCOc1ccc(CCN2C(=O)C(=O)N([C@@H](Cc3ccc(O)cc3)CN3CCC[C@@H]3CN3C(=O)C(=O)NC[C@@H]3Cc3ccccc3)C[C@@H]2Cc2ccccc2)cc1,0.2%,0%,·,·
COc1cccc(N2C(=O)Nc3ccc(Br)cc3C2(O)C(=O)NCCN(C)C)c1 (stereo not drawn),-3.3%,-7%,-1%,·
Clc1ccc(CNc2cnccn2)cc1Cl,1.7%,-2%,3%,·
COc1ccc(/C(N)=N/OC(=O)C2CCCCC2)cc1,-0.1%,10%,-73%,·
CCOc1ccc(C2c3c(oc4ccccc4c3=O)C(=O)N2c2ccc(C)cn2)cc1OC (stereo not drawn),3.5%,-7%,-8%,-8
COc1ccccc1N(CC(=O)N1CCCCC1)S(=O)(=O)c1ccccc1,4.7%,1%,0%,-17
Cc1cc(Oc2ccc(N)cn2)cc(C)c1Cl,0.5%,3%,4%,-1
CCCn1c(SCC(=O)Nc2ccc3c(c2)OCCO3)n[nH]c1=O,-0.1%,1%,·,·
CC1CCC2C(=O)N(c3ccc(NC4CCN(Cc5ccccc5)CC4)c([N+](=O)[O-])c3)C(=O)C2C1 (stereo not drawn),-0.8%,14%,-1%,-13
O=c1c2ccccc2cnn1Cc1n[nH]c(=S)n1C1CC2CCC1C2 (stereo not drawn),5.1%,-1%,2%,2
O=C1NCCN/C1=C\C(=O)c1ccc(Br)cc1,0.4%,3%,-49%,-11
CCc1cc2c(=O)c(-c3ccc(F)cc3)c(C(F)(F)F)oc2cc1OCC(=O)O,·,·,2%,5
COCCn1c(=NC(=O)c2cc(Cl)sc2Cl)sc2cc(S(N)(=O)=O)ccc21,0.6%,-5%,-8%,7
CC(C)(C)OC(=O)N1CCC(NC(=O)c2[nH]cnc2C(=O)Nc2ccccc2)CC1,11%,16%,·,·
O=C(NCc1ccc(F)cc1)c1cnc(-c2ccccn2)nc1C(F)(F)F,0.9%,-3%,-7%,8
O=C(NNc1cc(Cl)cc(Cl)c1)c1c(F)cccc1Cl,0.4%,-7%,-1%,-3
Cc1cccc(-c2nc3ccccc3c(=O)n2NC(=O)Cc2ccc(Cl)cc2)c1,0.0%,5%,-3%,5
CCSC1OC(C(COC(C)=O)OC(C)=O)C(OC(C)=O)C1NC(C)=S (stereo not drawn),1.1%,13%,·,·
CCOC(=O)c1ccccc1NC(=O)CN1C(=O)c2ccccc2S1(=O)=O,2.9%,-6%,1%,-16
CC(C)NS(=O)(=O)c1ccc(OCC(=O)NCc2ccco2)cc1,3.8%,0%,2%,9
O=[N+]([O-])c1cccc(OCCCN2CCC(Cc3ccccc3)CC2)c1,-0.9%,-9%,·,·
CCOc1ccccc1NC(=O)CSc1nnc(CNC(=O)c2ccccc2F)o1,0.1%,7%,3%,·
CS(=O)(=O)NNC(=O)CN1C(=O)C2C3C=CC(C3)C2C1=O (stereo not drawn),-3.3%,1%,2%,-1[21.1 µM]
COC(=O)c1cc2ccccn2c2c(C(=O)OC)c(C(=O)OC)cc1-2,-2.5%,3%,16%,-6
Cc1cc(Cl)ccc1NC(=O)CSc1nnc(Cc2cccs2)n1Cc1ccco1,-3.1%,0%,15%,-19
O=C(N/N=C/C=C/c1ccccc1)C1CC1(c1ccccc1)c1ccccc1 (stereo not drawn),0.3%,9%,-2%,6
CCCCOc1ccc(OCCNC(=O)C2CCCN2C(=O)Nc2ccccc2)cc1 (stereo not drawn),0.0%,-10%,5%,·
CCCC1=C(C(=O)OCC)C(c2ccc(N(C)C)cc2)n2ncnc2N1 (stereo not drawn),-2.3%,6%,-6%,-1
CCOC(=O)c1ccc2nc(C)c(CCC(C)=O)c(Cl)c2c1,?,-12%,-47%,-3
CCN(CC)C1=NS(=O)(=O)c2cc([N+](=O)[O-])ccc21,-2.9%,6%,3%,0
Cc1c(C(=O)N/N=C/c2cccs2)nnn1-c1nonc1N,-0.3%,-11%,-20%,·
O=C(O)c1cc(S(=O)(=O)N(Cc2ccccc2)c2ccccc2Cl)ccc1Cl,-1.5%,-6%,-1%,·
CCOc1ccc(S(=O)(=O)N2CCCC(C(=O)NCc3ccccc3)C2)cc1 (stereo not drawn),0.5%,6%,0%,·
NS(=O)(=O)c1cc(C(=O)OCC(=O)Nc2ccc3c(c2)OCO3)ccc1Cl,0.5%,2%,·,·
CSCCC(NC(=O)COc1ccccc1)C(=O)OCCOc1ccc(Br)cc1 (stereo not drawn),1.0%,-5%,·,·
CCn1cc(C(=O)Nc2ccc(C)cc2C)c(=O)c2ccc(C)nc21,·,·,-2%,6
COc1cccc(NC(=O)c2cc(-c3ccc(OC)cc3OC)nc3ccccc23)c1,4.0%,-6%,·,·
CC1Cc2ccccc2N1CC(=O)NC(c1ccccc1)c1ccccc1 (stereo not drawn),-2.7%,-10%,-1%,3

# Three of the entries above in order of their number in miR-21 FLuc, low to high:
SMILES,Rango-impB inh,Rango release inh,miR-21 FLuc,GLA inh pH 4.5
CCCC1=C(C(=O)OCC)C(c2ccc(N(C)C)cc2)n2ncnc2N1 (stereo not drawn),-2.3%,6%,-6%,-1
CC1Cc2ccccc2N1CC(=O)NC(c1ccccc1)c1ccccc1 (stereo not drawn),-2.7%,-10%,-1%,3
CCOc1ccc(S(=O)(=O)N2CCCC(C(=O)NCc3ccccc3)C2)cc1 (stereo not drawn),0.5%,6%,0%,·

# Next part.
SMILES,Rango-impB inh,Rango release inh,miR-21 FLuc,GLA inh pH 4.5
CCCC[N+](C)(C)CCC(=O)NC(C)(C)CS(=O)(=O)[O-],-0.8%,16%,-1%,-10
O=C(O)C1CC=CCC1C(=O)Nc1cc(Cl)ccc1Cl (stereo not drawn),3.0%,6%,-1%,7
COC(=O)c1sccc1NC(=O)Cn1nnc(-c2ccc(C)cc2)n1,-4.4%,-10%,-6%,9
Nc1[nH]c(N=NC(=O)c2ccccc2)c2ccccc12,-5.6%,-17%,-35%,15
CN(C)c1ccc(C(=O)NN2C(=O)c3ccccc3C2=O)cc1,-4.9%,2%,-3%,-2
COc1cccc(C(=O)NNC(=O)C(=O)Nc2ccc(C)cc2)c1,3.0%,6%,-16%,·
COc1ccc(NC(=O)c2sc3nc(C)cc(C)c3c2N)cc1,?,?,-50%,·
O=C(CCSc1nnc2ccccn12)Nc1ccc2c(c1)OCO2,-0.9%,-3%,-18%,-6
CSc1ccc(S(=O)(=O)N2CCC(C(=O)NCCc3ccccc3)CC2)cc1,-0.1%,8%,0%,·
COc1cc2[nH]c(C(=O)N3CCN(c4ccc(F)cc4)CC3)cc2c(OC)c1OC,3.2%,1%,-1%,·
CCOc1ccccc1CN1CCN(Cc2nc3c(s2)CCCC3)CC1CCO (stereo not drawn),-3.1%,0%,-1%,-7
Cc1cc(C)n(C(=O)/C(C#N)=N\Nc2ccccc2[N+](=O)[O-])n1,-2.2%,-10%,-16%,-1

# In a second layout: entries from further up.
Structure: CCCC[N+](C)(C)CCC(=O)NC(C)(C)CS(=O)(=O)[O-]
- Rango-impB inh: -0.8%
- Rango release inh: 16%
- miR-21 FLuc: -1%
- GLA inh pH 4.5: -10
Structure: CN(C)c1ccc(C(=O)NN2C(=O)c3ccccc3C2=O)cc1
- Rango-impB inh: -4.9%
- Rango release inh: 2%
- miR-21 FLuc: -3%
- GLA inh pH 4.5: -2

# Next part.
SMILES,Rango-impB inh,Rango release inh,miR-21 FLuc,GLA inh pH 4.5
Nc1ncnc2c1CCC2,0.2%,-2%,-7%,-4
O=C(O)c1ccc2c(c1)C1C=CCC1C(c1ccncc1)N2 (stereo not drawn),-2.0%,-5%,0%,-9
Cc1ccc2c(c1)N(C(=O)CCC(=O)NCCCN1CCC(Cc3ccccc3)CC1)CCO2,5.6%,2%,9%,·
Cc1cc(C(=O)OCC(=O)Nc2ncc(C(F)(F)F)cc2Cl)c(C)o1,?,-19%,-14%,-7
Cc1ccc(OC(=O)c2ccc(S(=O)(=O)N(C)C)cc2)c(-n2nc3ccccc3n2)c1,2.0%,2%,-40%,-6
CC1=C/C(=C\c2ccc(Br)o2)C(=O)O1,-4.5%,-4%,1%,4
CCN(Cc1ccccc1)C(=O)CN1C(=O)NC(CC)(c2ccc(F)cc2)C1=O (stereo not drawn),?,-1%,5%,·
O=C(CSc1nc2cc(S(=O)(=O)N3CCOCC3)ccc2o1)NC1CCCc2ccccc21 (stereo not drawn),-3.9%,-5%,1%,-5
CCOC(=O)C1CCN(C(=O)CS(=O)(=O)Cc2nc(-c3ccccc3Cl)oc2C)CC1,0.5%,13%,7%,·
Cc1cccn2c(=O)c3cc(C#N)c(=O)n(-c4c(C)n(C)n(-c5ccccc5)c4=O)c3nc12,-1.5%,-1%,-11%,6
CCN(Cc1nc(-c2ccc(OC)cc2)no1)C(=O)c1ccc2c(c1)OCO2,1.4%,4%,-5%,·
COc1ccc(C(=O)OCC(=O)NCc2ccco2)cc1S(=O)(=O)N1CCN(c2cccc(Cl)c2)CC1,0.4%,7%,1%,3
COc1nc(-c2ccc(Cl)cc2)ccc1-c1noc(-c2cccs2)n1,4.3%,12%,-2%,-4
COc1ccc(CN(C(=O)c2cccs2)C(C(=O)NC2CCCCC2)c2ccc3ncccc3c2)cc1 (stereo not drawn),-3.1%,-1%,2%,-4
O=C(CSc1nc2ccccc2n1Cc1ccccc1)N/N=C/c1ccco1,2.4%,0%,2%,-6

# This is a subset (hit frequency here may not be typical).
